TRPML1 blocker – qHTS for Inhibitors of the Human Mucolipin Transient Receptor Potential 1 (TRPML1) | hit rate 0.02% among 390,000 | Mucolipin-1 (Homo sapiens), Q9GZU1 | TRPML1-inducible cells, Ca2+ dye fluorescence, FDSS; stronger effect = lower value; inhibition of EC80 agonist-evoked calcium signal | activity change, negative = inhibition, % (no concentration beside the values); in the data active means activity change below about -50%; inconclusive means about -30% to -50%; inactive means above about -30%;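 note: stimulus is agonist 54-4 at its EC80 concentration; % is set by controls: 0 for no effect and ±100 for the full control effect; compound concentration not given in the record; the text of the record puts the active cut at -80%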
Target sequence (Q9GZU1 whole entry, looked up): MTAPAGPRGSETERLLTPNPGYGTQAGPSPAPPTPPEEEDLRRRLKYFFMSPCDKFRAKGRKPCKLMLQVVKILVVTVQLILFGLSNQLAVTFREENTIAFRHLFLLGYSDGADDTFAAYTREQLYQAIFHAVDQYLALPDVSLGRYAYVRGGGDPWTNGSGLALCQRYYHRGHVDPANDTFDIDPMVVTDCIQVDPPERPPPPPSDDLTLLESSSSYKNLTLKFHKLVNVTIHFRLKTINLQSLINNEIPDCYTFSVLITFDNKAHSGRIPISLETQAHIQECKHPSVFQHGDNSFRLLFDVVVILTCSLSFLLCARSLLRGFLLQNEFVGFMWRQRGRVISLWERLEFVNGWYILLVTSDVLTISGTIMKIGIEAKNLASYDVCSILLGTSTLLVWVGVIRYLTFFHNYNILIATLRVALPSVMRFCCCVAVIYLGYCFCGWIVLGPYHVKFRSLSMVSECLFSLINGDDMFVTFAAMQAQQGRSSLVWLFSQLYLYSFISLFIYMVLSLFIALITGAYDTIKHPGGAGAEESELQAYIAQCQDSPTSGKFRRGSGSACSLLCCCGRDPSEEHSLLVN
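Tet-induced TRPML1-DL cells loaded with Ca8 no-wash calcium dye were read kinetically on FDSS. Compound addition was followed by EC80 agonist 54-4 (4 uM final); inhibition was read over 110 s.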
D2 agonist – Beta-Arrestin HTS for Positive Allosteric Modulators of the Human D2 Dopamine Receptor: Agonists; DiscoveRx PathHunter D2 beta-arrestin, luminescence, 90 min; 100% = 57 uM dopamine signal; hit rate 0.084% among 360,000; D(2) dopamine receptor (Homo sapiens), P14416; activation, % (test concentration not listed); AID 624465, 2012; in the data active = activation above about 40%; inconclusive = about 15% to 40%; inactive = below about 15%; note: compound concentration not given in the record; the text of the record calls up to 30% inactive
Target sequence (P14416 whole entry, looked up): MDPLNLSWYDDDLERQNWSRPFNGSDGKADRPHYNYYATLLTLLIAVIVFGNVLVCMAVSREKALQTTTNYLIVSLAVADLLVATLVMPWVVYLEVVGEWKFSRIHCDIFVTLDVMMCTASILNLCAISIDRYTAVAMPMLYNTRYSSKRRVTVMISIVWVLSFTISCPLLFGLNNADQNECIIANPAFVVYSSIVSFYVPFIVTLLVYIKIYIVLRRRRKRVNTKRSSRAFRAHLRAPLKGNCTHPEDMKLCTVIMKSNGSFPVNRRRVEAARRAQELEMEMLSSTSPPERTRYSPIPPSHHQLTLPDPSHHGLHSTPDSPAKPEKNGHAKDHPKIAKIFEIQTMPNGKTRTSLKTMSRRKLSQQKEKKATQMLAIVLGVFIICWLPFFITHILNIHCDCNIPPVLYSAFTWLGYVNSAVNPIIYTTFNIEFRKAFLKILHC
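DiscoveRx PathHunter D2 beta-arrestin cells (2,100/well) attached overnight, then compound-stimulated 90 min at 37 C in HBSS/10 mM HEPES/0.1% Tween-20 buffer; beta-galactosidase complementation read by luminescence after 1 h at ambient temperature. Dopamine 57 uM final (EC100) as control.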
D2 PAM – Beta-Arrestin HTS for Positive Allosteric Modulators of the Human D2 Dopamine Receptor: Potentiators | AID 624464, 2012 | DiscoveRx D2 beta-arrestin cells, luminescence, 90 min; 100% = 57 uM dopamine signal | hit rate 0.23% among 360,000 | potentiation, % (test concentration not listed); active = potentiation of 50% or more; inconclusive = 30% to 50%; inactive = 30% or less;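 note: compound concentration not given in the record; tested on top of an EC20 dose of dopamine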
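PathHunter beta-arrestin assay in DiscoveRx D2 cells. Compounds were added with an EC20 of dopamine (50 nM final) for 90 min at 37 deg C. Luminescence was read 1 h after detection reagent, with 57 uM dopamine as the EC100 control.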
Six1-Eya2 blk – qHTS Assay for Inhibitors of the Six1/Eya2 Interaction; AlphaScreen GST-Six1/His-Eya2 binding, biochemical; stronger effect = lower value; control for the full effect not named in the record; activity change, % (concentration not given with the values); hit rate 0.56% among 360,000; AID 651725, 2012; in the data active = activity change below about -65%; inconclusive = about -30% to -65%; inactive = above about -30%; note: % is set by controls: 0 for no effect and ±100 for the full control effect
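AlphaScreen luminescence read after one hour at 37 °C in darkness. Pin-transferred compounds met GST-Six1 and His-Eya2 protein (5X stock 250 nM/500 nM) plus glutathione donor and Ni-chelate acceptor beads (5X, 50 ug/mL).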
TRPML1 ag – qHTS for Agonists of the Human Mucolipin Transient Receptor Potential 1 (TRPML1); Mucolipin-1 (Homo sapiens), Q9GZU1; TRPML1-expressing cells, Ca2+ dye fluorescence, FDSS; host cell line not named in the record; reference of the full effect not given here; activation, % (test concentration not listed); hit rate 0.12% among 410,000; AID 624414, 2012; in the data active = activation above about 50%; inconclusive = about 30% to 50%; inactive = below about 30%; note: 0% is about no effect; the text of the record puts the active cut at 80%
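Calcium fluorescence on an FDSS kinetic reader gave the read-out. Tet-induced TRPML1-DL cells were plated overnight, dye-loaded (Ca8 with quencher, 45-90 min, room temperature, dark), then read 110 s after compound addition, and again 110 s after 4uM final 54-4 (EC80).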
PINK1 modulator – A Quantitative High throughput Screen to Identify Chemical Modulators of PINK1 Expression; PINK1 immunofluorescence, high-content cytometry, 24 h; hit rate 0.2% among 410,000; Potency, µM (highest dose often 76.6 µM), for the others: top-dose activation (PINK1 increase), most hits filed as activators; active = well fitted activation curve with a large enough effect; inconclusive = small, poorly fitted or top-dose-only effect; inactive = flat fitted curve, though single readings scatter; cell line not stated here;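 note: potency is the fitted concentration of half-maximal effect; % of control where 0% means no effect; nearly all actives have a fitted effect of over 65% in size; a mitochondrial uncoupler was the plate control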
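Fluorescence from anti-PINK1 antibody, together with nuclear and cell stains, was scanned on a laser-scanning cytometer. Before staining, stable-line cells were incubated 24 hours with compounds at 5 concentrations; primary antibody 12 h at 10 degrees C.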
Numbers without * were called inactive; . = not tested or not shown; [ ] = another dose, or the depositor's remark.

SMILES	TRPML1 blocker	D2 agonist	D2 PAM	Six1-Eya2 blk	TRPML1 ag	PINK1 modulator
COc1ccc(NS(=O)(=O)c2ccc(-c3n[nH]c(=S)n3Cc3ccccc3)cc2)cc1	8	8.6	0	-5	-0.2	2.0%
COc1ccc(C)cc1N(CC(N)=O)S(=O)(=O)c1ccc(C)cc1	6	-3.3	-2	2	0.5	-3.7%
O=c1oc2cc(O)ccc2cc1-c1nnc(Nc2ccccc2F)s1	3	.	.	.	71*	2.4%
CCSc1nc(N)nc2c1ncn2C1OC(CO)C(O)C1O (stereo unspecified)	-12	0.9	-8	4	0.3	2.9%
O=C1Nc2cc3c(cc2C1=O)sc1ccccc13	2	-13	-33	-1	0.2	1.5%
Cc1noc(/C=C/c2ccccc2F)c1S(=O)(=O)N1CCC(C(=O)Nc2ccc(C#N)cc2)CC1	34	.	.	.	0.7	11%
CC(C)(C)N(CC#CCC1(O)c2ccccc2-c2ccccc21)CCO	13	-1.7	-3	10	2.4	-0.2%
COc1ccnc(-n2cccc2C#N)c1C#N	0	-2.5	-4	3	0.8	-1.3%
COc1ccc(S(=O)(=O)NCCc2nnc3ccc(SCc4cccnc4)nn23)cc1	0	-4.8	6	0	3.9	0.5%
O=C(CC[C@H]1O[C@@H](n2cnc3c(NC(=O)c4ccccc4)ncnc32)[C@H](O)[C@@H]1O)NCC(c1ccccc1)c1ccccc1	.	-2.2	5	2	-0.4	0.9%
Cn1c(=O)c2c(ncn2Cc2nnc(N)s2)n(C)c1=O	15	-0.5	-1	7	0.1	0.8%
C#CCNC(=O)C1=C[C@@H](c2cn(C(C)=O)c3ccccc23)C[C@@H](OCc2ccc(CO)cc2)O1	-4	3.9	4	-8	0.1	0.2%
Cc1ccc(N(CC(=O)N2CCN(c3cccc(C)c3C)CC2)S(=O)(=O)c2c(C)nn(C)c2C)cc1	21	.	.	.	1.8	9.9%
O=S(=O)(c1cccc2nsnc12)N1CCCC1	5	0.8	-8	1	-0.4	0.1%[38.3 µM]
OC[C@@H]1CN(CCc2ccccc2)C[C@H](n2cnc3c(N4CCOCC4)ncnc32)O1	.	-6.6	1	14	-0.8	0.2%
COC(=O)c1ccc(Cn2nc(C(F)(F)F)cc2C)cc1	20	-0.8	-13	9	4.2	-2.3%
CCC/C(=N/NC(=O)c1csc(C)c1C)c1ccc(Cl)s1	2	-3.9	0	4	-0.9	0.4%
CCOC(=O)C1=C(C)NC(=O)NC1c1ccc(OCC(=O)Nc2ccccc2)c(OC)c1 (stereo unspecified)	1	-3.9	-9	-6	0.1	3.8%
COc1ccc(CNCc2ccc(F)cc2)c(OC)c1	-3	5.4	-23	0	0.2	0.7%
Cc1c(C(=O)Nc2ccc(Cl)cc2)c2ccccn2c1CCc1ccncc1	76	-4.2	-6	3	1.2	-2.3%
CN(C)S(=O)(=O)c1cccc(NC(=O)NCCCl)c1	.	-10	-13	6	.	0.9%
Cn1c(=O)oc2cc(S(=O)(=O)N3CCCC(C(=O)NC4CCCc5ccccc54)C3)ccc21 (stereo unspecified)	4	0.0	-4	-9	-0.2	15%
Cc1ccccc1OC(=O)CCC(=O)OCCCC(F)(F)C(F)(F)F	6	-1.1	-12	47	3.0	18%[38.3 µM]
Cc1cc(OC(C)C(=O)N2CCN(CCc3ccccn3)CC2)ccc1Cl (stereo unspecified)	-11	.	.	.	-0.8	1.3%
O=S(=O)(c1ccc(Cl)cc1)N1CCn2c1nc1ccccc12	-5	-1.7	-7	-7	-0.3	6.6%[38.3 µM]

One compound at a time (already shown). Order of values: TRPML1 blocker, D2 agonist, D2 PAM, Six1-Eya2 blk, TRPML1 ag, PINK1 modulator
COc1ccc(S(=O)(=O)NCCc2nnc3ccc(SCc4cccnc4)nn23)cc1 is listed as 0, -4.8, 6, 0, 3.9, 0.5%
CC(C)(C)N(CC#CCC1(O)c2ccccc2-c2ccccc21)CCO is listed as 13, -1.7, -3, 10, 2.4, -0.2%
Cc1c(C(=O)Nc2ccc(Cl)cc2)c2ccccn2c1CCc1ccncc1 is listed as 76, -4.2, -6, 3, 1.2, -2.3%
COc1ccc(C)cc1N(CC(N)=O)S(=O)(=O)c1ccc(C)cc1 is listed as 6, -3.3, -2, 2, 0.5, -3.7%
Cc1cc(OC(C)C(=O)N2CCN(CCc3ccccn3)CC2)ccc1Cl (stereo unspecified) is listed as -11, ., ., ., -0.8, 1.3%

The main list resumes, starting 2 compounds before the break.
SMILES	TRPML1 blocker	D2 agonist	D2 PAM	Six1-Eya2 blk	TRPML1 ag	PINK1 modulator
Cc1cc(OC(C)C(=O)N2CCN(CCc3ccccn3)CC2)ccc1Cl (stereo unspecified)	-11	.	.	.	-0.8	1.3%
O=S(=O)(c1ccc(Cl)cc1)N1CCn2c1nc1ccccc12	-5	-1.7	-7	-7	-0.3	6.6%[38.3 µM]
Cc1ccc(S(=O)(=O)N2CCOCCOCCOCCOCCOCC2)cc1	-5	-4.6	3	-2	-0.1	-1.1%
COc1ccc(S(=O)(=O)N2CCOCC2)cc1NS(=O)(=O)/C=C/c1ccccc1	-4	-3.0	-3	0	-0.2	0.5%
CCN(CC)C(=O)Cn1cc(C(=O)C(=O)Nc2ccc3c(c2)OCO3)c2ccccc21	-2	0.9	-1	-9	-0.9	0.5%
COc1ccc(NC(=O)CN(C)C(=O)c2cc(-c3ccncc3)nc3ccccc23)cc1	-10	4.8	-3	-2	0.6	-0.7%
CC/C(=N\NS(C)(=O)=O)c1ccccc1	10	-2.6	-11	-1	-0.8	-0.5%
CN(c1ccc(OCC(=O)N2CCOCC2)cc1)S(=O)(=O)c1ccc(F)cc1	33	-1.7	3	-1	-0.3	3.2%
CCN(CC)S(=O)(=O)c1ccc(N2CCOCC2)c(NC(=O)C2=COCCO2)c1	-19	-0.5	-2	4	-0.2	0.4%
O=C(CCCNC(=O)c1ccc(Cl)cc1)NCc1ccccc1Cl	.	-1.6	-12	2	.	-0.4%
Cc1cc(C)n2nc(C(=O)OCC(=O)N(C)CC(=O)Nc3ccc(F)cc3)nc2n1	-4	-2.8	-7	-2	-1.0	-0.2%
Cc1cc(C)c2c(c1)c1nnc(SCCN3CCCCC3)nc1n2C	2	-1.7	-19	-11	-0.9	0.1%
NC(=S)N/N=C1/CCSc2ccc3ccccc3c21	-1	0.7	-8	-14	0.7	-1.2%
COc1ccc(/C=N/NC(=O)c2cc(C)on2)c2ccccc12	0	-0.7	-31	0	-0.3	0.8%
CN(CC(=O)Nc1cc(C(F)(F)F)ccc1-n1cncn1)Cc1nc2ccccc2c(=O)[nH]1	-17	5.1	0	-6	0.9	-0.1%
COc1cc(C[C@@H]2C(=O)OC[C@H]2Cc2ccc(OC)c(OC)c2)ccc1O	14	1.0	8	1	-0.7	3.1%
CC(/C=C1\SC(=S)N(CC(=O)O)C1=O)=C\c1ccccc1	-12	-4.4	-9	10	0.3	-0.7%
COC(=O)c1ccc(CSc2nc3sc(C(=O)O)c(C)c3c(=O)[nH]2)cc1	-3	-1.8	-3	1	0.0	0.4%
Cc1ccc(S(=O)(=O)N(C)CC(=O)N2CC(C)OC(C)C2)cc1 (stereo unspecified)	-19	1.4	-5	5	1.2	0.9%
Cc1nc(N/C(N)=N/S(=O)(=O)c2ccc([N+](=O)[O-])cc2)nc2ccccc12	-6	1.5	10	-15	-2.0	-0.9%
CCOC1=C2CN(S(=O)(=O)c3ccc(C)cc3)[C@H](c3cccc4ccccc34)C[C@H]2C(C#N)(C#N)C(C#N)(C#N)C1	23	-5.1	-12	-5	1.2	0.8%
COc1ccc(Cl)cc1NC(=O)C(C)N(C)Cc1cccc(Cl)c1Cl (stereo unspecified)	63	-2.5	-14	33	1.9	1.4%
Cc1cccc(OCc2nnc(SCC(=O)Nc3cccc(C(=O)N4CCOCC4)c3)n2C)c1	3	-0.1	-3	3	-0.1	2.0%
COc1ccc(OC)c(CCNC(=O)c2ccc3c(c2)N(Cc2ccc(C)cc2)CCS3)c1	4	.	.	.	0.1	-0.3%
CNc1ccc([N+](=O)[O-])cc1	89	-5.7	-7	-1	0.3	0.0%
Cc1cc(C)n(/C(=C\N(C)C)C(=O)c2cccc([N+](=O)[O-])c2)n1	8	-4.1	-1	-3	0.3	-0.3%
CCOc1ccc(S(=O)(=O)N2Cc3ccccc3CC2C(=O)NCCCn2ccnc2)cc1 (stereo unspecified)	-7	0.0	-2	2	-1.3	1.1%
SMILES	TRPML1 blocker	D2 agonist	D2 PAM	Six1-Eya2 blk	TRPML1 ag	PINK1 modulator
CC(C)(C)NC(=S)NNC(=O)c1ccccc1Cl	7	-9.0	-28	0	0.0	0.3%
Cc1ccc(Cl)cc1NC(=O)CSc1nncn1-c1ccccn1	22	-3.0	-6	-3	-0.5	5.6%
Cc1cccc(Cn2c(=O)n(CC3CCC(C(=O)NC(C)C)CC3)c(=O)c3sccc32)c1 (stereo unspecified)	-16	.	.	.	-0.5	-1.0%
CCCOc1ccccc1NC(=O)/C=C/C(N)=O	-4	1.2	5	7	0.3	2.4%[38.3 µM]
Cc1cnc(CNC(=O)CC2C(=O)NCCN2Cc2ccccc2C(F)(F)F)cn1 (stereo unspecified)	-5	-5.2	-6	-1	-0.1	1.1%
COc1ccc(C)cc1NC(=O)Cn1c(=O)c(C(F)(F)F)nc2ccccc21	20	.	.	.	-0.8	1.8%
CC(C)CCSc1nnc2n(-c3ccccc3)c(=O)c3c4c(sc3n12)CC(C)CC4 (stereo unspecified)	-12	.	.	.	3.2	0.7%
COCCNc1nc(Oc2cccc(F)c2)c2sccc2n1	.	4.1	-3	4	-1.4	-0.6%
CC12CN(S(=O)(=O)c3ccccc3)CC(C)(CN(S(=O)(=O)c3ccccc3)C1)C2	7	1.6	-1	4	0.4	3.5%
Cc1cc(C(=O)N2CCN(c3ccccc3Cl)CC2)c(C)o1	-14	-0.7	-7	10	0.2	2.0%
Cc1ccc(Cn2c(CCNC(=O)C(C)C)nc3ccccc32)cc1	-9	.	.	.	4.0	2.1%
Cc1nc2ccc(NC(=O)c3ccc(S(=O)(=O)N(C)c4ccccc4)cc3)cc2s1	7	-0.9	3	-6	0.3	-0.1%
CNS(=O)(=O)c1cccc(C(=O)OCC(=O)N(Cc2ccccc2)C(C)(C)C)c1	-9	3.1	-4	0	0.0	-1.5%
COc1ccc(C(=O)Nc2nc3cc(OC)c(OC)cc3c(=O)[nH]2)cc1	-14	0.6	5	-1	-0.9	1.0%
O=C(Cn1ncn2c(cc3ccccc32)c1=O)NCCC1=CCCCC1	19	0.0	-5	-1	0.8	-0.3%[38.3 µM]
Cc1ccc(/C(O)=C2/C(=O)C(=O)N(CCN3CCOCC3)C2c2ccccn2)cc1 (stereo unspecified)	2	-2.6	16	-13	0.2	0.1%

Assay outcomes (PubChem BioAssay)
